# Bioassay records: PubChem BioAssay, National Center for Advancing Translational Sciences (NCATS)
# Sfp PPTase inh: blocks B. subtilis Sfp PPTase activity; Q9F4F7; AID 1490; Potency, µM, without a hit: max response, negative = inhibition, hits mostly inhibitors; actives 3.5% (n = 310,000); Biochemical Sfp PPTase activity, qHTS; active = well fitted inhibition curve with a large enough effect; inconclusive = small, poorly fitted or top-dose-only effect, or another doubt; inactive = no such curve, though single readings can be large or run the other way;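 also: the enzyme is Sfp with the accession as filed and its product quenches rhodamine fluorescence; potency is read from the fitted curve at half-maximal effect; 0% = enzyme reaction without inhibitor and -100% = no enzyme wells; top concentration of the series not given in the record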
#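 Compounds were incubated with enzyme (final 15 nM) for 15 min at room temperature before substrate addition started the reaction. Fluorescence at 525 nm excitation, 598 nm emission was recorded immediately and after 30 minutes.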
# Menin-MLL FL inh: menin-MLL binding inhibition, fluorescein peptide; FP activity change, % at 61.4 µM; Fluorescence polarization, fluorescein-MLL peptide displacement from menin; AID 1766; 290,000 tested, under 10 active; inconclusive = falling polarisation curve, or a change in total fluorescence; inactive = total fluorescence flat and polarisation flat or rising; no compound was filed as active; the % refers to the polarisation; negative = inhibition;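 also: % of control where 0% means no effect; inhibitors lower the polarisation; unlabelled MLL peptide was the positive control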
# An asterisk follows results filed as active; ? = inconclusive; & = joins results of further samples; [ ] = remark or other dose.
# Sample of the layout (4 entries):
# Below each compound – Sfp PPTase inh | Menin-MLL FL inh
- CCOC(=O)CCN1C(=O)[C@H]2[C@H]3[C@H](O)[C@H](O)C/C(=N/OC/C=C(\C)CCC=C(C)C)[C@H]3CC[C@@H]2C1=O
→ 16% | 5.0[11.7 µM]
- Cc1ccc(S(=O)(=O)N[C@H]2COC(=O)CC=C[C@@H](C)[C@H]3C=C[C@H](O)[C@@H](COC(=O)CC=C[C@H]2C)O3)cc1
→ -2%&10% | 1.8&-0.8[11.7 µM]
- CC1CCC(C(C)(C)O)CC2=C1CCC2C (centres undefined)
→ 12% | 4.8
- COc1ccc2c(c1)O[C@@H](c1cccc(C(F)(F)F)c1)[C@H](OC(=O)NS(=O)(=O)c1ccc(F)cc1)C2=O
→ 10% | 0.0

# Main list, from the start:
# Below each compound – Sfp PPTase inh | Menin-MLL FL inh
- CCOC(=O)CCN1C(=O)[C@H]2[C@H]3[C@H](O)[C@H](O)C/C(=N/OC/C=C(\C)CCC=C(C)C)[C@H]3CC[C@@H]2C1=O
→ 16% | 5.0[11.7 µM]
- Cc1ccc(S(=O)(=O)N[C@H]2COC(=O)CC=C[C@@H](C)[C@H]3C=C[C@H](O)[C@@H](COC(=O)CC=C[C@H]2C)O3)cc1
→ -2%&10% | 1.8&-0.8[11.7 µM]
- CC1CCC(C(C)(C)O)CC2=C1CCC2C (centres undefined)
→ 12% | 4.8
- COc1ccc2c(c1)O[C@@H](c1cccc(C(F)(F)F)c1)[C@H](OC(=O)NS(=O)(=O)c1ccc(F)cc1)C2=O
→ 10% | 0.0
- C=C1c2cccc(C(F)(F)F)c2O[C@H](C(=O)OCC)C1OC (mixture of isomers)
→ 1% | 3.2[94.6 µM]
- COCCn1c(=O)cnc2cnc(Oc3ccccc3)nc21
→ 41%[activator] | 8.1
- CC(=O)N1CCC[C@@]2(CCN(Cc3nccs3)C2)C1
→ 15% | -7.3
- O=c1c(-c2ccccc2)nc2cncnc2n1-c1ccccc1
→ 5% | 5.0
- C=C1C[C@@]23C[C@@]1(O)CCC2[C@@]12C=CC(O)[C@](C)(C(=O)O1)C2C3C(=O)O (some centres undefined)
→ -1% | -2.6
- CC(=O)OCC1OC(C#Cc2ccccc2)C=CC1OC(C)=O (centres undefined)
→ -13%&1% | 3.6&-3.7[11.7 µM]
- COC(=O)C1=C(C(=O)OC)[C@@H]2N(C)c3ccccc3[C@@]23C[C@@H](C(=O)OC)N(S(=O)(=O)c2ccc([N+](=O)[O-])cc2)C3=N1
→ -12% | 1.4[11.7 µM]
- O=c1c(-c2ccccc2)coc2cc(O)cc(O)c12
→ -104% | 28
- COc1cc(C(CCN2CCOCC2)c2c(OC)cc(OC)c3ccc(=O)oc23)cc(OC)c1OC (centres undefined)
→ -11% | -1.3
- CS(=O)(=O)N1CCC2(CC1)CN(C(=O)Nc1cccc(C#N)c1)C2
→ 0% | -0.9
- CN(C)C(=O)c1ccc(-c2cncnc2NCCc2cnc[nH]2)cc1
→ 4% | -4.2
- c1ccc(-c2nn[nH]n2)c(Nc2cccc3c2CCCC3)c1
→ 7% | 6.4
- Cc1nc(N2CCOCC2)c2nc(-c3ccccc3)n(CCCN(C)C)c2n1
→ 35%[activator] | 1.9
- O=c1cnc2cnc(Oc3ccccc3)nc2n1CCc1ccccc1
→ 6% | -1.1
- CC(C)C1COc2cc3oc(=O)ccc3cc2O1 (centres undefined)
→ 8% | -11
- COc1ccc2c(c1)O[C@@H](c1cccc(C(F)(F)F)c1)[C@H](OC(=O)NCCOc1ccccc1)C2=O
→ -28% | -6.0
- COC(=O)c1ccc(C(NC(=O)OCc2ccccc2)/C(=C/[C@@H](C)C(=O)NCCc2c[nH]c3ccccc23)c2cccnc2)cc1 (some centres undefined)
→ 18% | -1.0
- COC(=O)CC1=COC2OCC3=CC[C@@H]1C32 (some centres undefined)
→ 34%[activator] | 2.0[11.7 µM]
- Cc1noc(C)c1C(=O)N1CCC2(CCCN(c3ccccc3)C2)CC1
→ 11% | ?
- CN(Cc1ccco1)c1ccnc(-c2cccc(NS(C)(=O)=O)c2)n1
→ 3% | -0.6
- CCNc1ncc2nc(-c3ccc(Cl)cc3)c(=O)n(Cc3cccs3)c2n1
→ 7% | ?
- CCCCCCCCCCCCCC(=O)OCC(COP(=O)([O-])OCC[N+](C)(C)C)OC(=O)CCCCCCCCCCCCC (centres undefined)
→ 10% | -6.5
- COc1ccccc1N1CCN(CCN2C(=O)c3ccccc3C(C)(C)C2=O)CC1
→ 1%&-7% | -28
- O=c1c(-c2cccs2)nc2cnc(N3CCOCC3)nc2n1-c1ccccc1
→ 5% | ?
- CCCCC/C=C\C/C=C\CCCCCCCCCC(=O)NCCCC(=O)O
→ 27% | 1.2
- CC1(C)CC2C1CC[C@]1(C)CCC3C(C(=O)O)CC(=O)O[C@]32C1 (some centres undefined)
→ -2% | -1.4
- CC(=O)N[C@H]1[C@H](O[C@@H]2c3ccc(c(Cl)c3)Oc3cc4cc(c3O[C@@H]3O[C@H](CO)[C@@H](O)[C@H](O)C3C)Oc3ccc(cc3Cl)C[C@H]3NC(=O)[C@@H](N)c5ccc(O)c(c5)Oc5cc(O)cc(c5)[C@H](NC3=O)C(=O)N[C@H]4C(=O)N[C@H]3C(=O)N[C@@H]2C(=O)N[C@@H](C(=O)O)c2cc(O)cc(O[C@H]4O[C@H](CO)[C@@H](O)C(O)[C@@H]4O)c2-c2cc3ccc2O)O[C@H](CO)[C@@H](O)[C@@H]1O (some centres undefined)
→ -22% | 5.5[24.8 µM]
- OCC1OC(c2ccccc2)C=CC1Oc1ccc(C2CCCC2)cc1 (centres undefined)
→ ? | -3.2[11.7 µM]
- O=C(/C=C/c1ccc(O)cc1)OC[C@H]1O[C@@H](Oc2c(-c3ccc(O)cc3)oc3cc(O)cc(O)c3c2=O)[C@H](O)[C@@H](O)[C@@H]1O
→ 2% | 2.6
- FC(F)(F)c1ccccc1-c1nc(Nc2ccncc2)c2ccccc2n1
→ -10% | 1.7
- C=CCCCCCCCCC(=O)O
→ 14% | 1.2
- O=C(c1ccco1)N1CCC[C@@]2(CCN(c3ccccn3)C2)C1
→ 6% | 1.3
- COC(=O)NC(/C(C(=O)OC)=C(\C)NCc1ccccc1)c1cccc(F)c1 (centres undefined)
→ -19% | -0.7[11.7 µM]
- CCCC[C@@H]1C[C@H]1C(NC(=O)c1cccnc1)c1ccc(-c2ccccc2)cc1 (some centres undefined)
→ 21% | 3.2
- Cn1cc(-c2nc3cnc(N4CCOCC4)nc3n(C3CC3)c2=O)c2ccccc21
→ 10% | ?
- CO/N=C(/C(=O)N[C@H]1C(=O)N2C(C(=O)O)=C(COC(C)=O)CSC12)c1csc(N)n1 (some centres undefined)
→ -32% | -11
- CCCCNc1nc(C)nc2c1nc(-c1ccccc1)n2C(C)CCCN(CC)CC (centres undefined)
→ -3% | -4.8
- COC(=O)NC(c1cccc(C)c1)[C@@]1(C(=O)OC)CCCC1=O (some centres undefined)
→ 18% | -3.1[11.7 µM]
- COCCn1c(=O)c(-c2cc(F)cc(F)c2)nc2cnc(N3CCOCC3)nc21
→ 16% | -17
- O=c1c(-c2cc(O)c(O)c(O)c2)coc2cc(O)c(O)c(O)c12
→ -92% | -28
- CCCCC/C=C\C[C@@H](O)/C=C/C=C/C=C/[C@@H](O)CCCC(=O)O
→ 2% | -4.4
- CC(=O)N1CCC2(CCCN(C(c3ccccc3)c3ccccc3)C2)CC1
→ -18% | -1.8
- COc1ccc(Cl)cc1-c1ccc(C(=O)O)s1
→ -12% | 3.5[94.6 µM]
- O=C(Nc1cccc(F)c1)N1CCC2(CC1)CCN(C(=O)c1ccncc1)CC2
→ 20% | -2.4
- COc1cccc(Cn2c(=O)c(-c3cccc(C#N)c3)nc3cnc(N4CCN(C)CC4)nc32)c1
→ 11% | -13
- CC1(C)SC2C(NC(=O)C(C(=O)O)c3ccccc3)C(=O)N2C1C(=O)O (centres undefined)
→ -6% | 2.4
- COc1ccccc1CNc1ncnc2ccc(-c3ccc(N(C)C)cc3)cc12
→ ? | 0.0
- COc1ccc(C(=O)c2ccc(C)cc2)c(O)c1
→ 7% | 0.8
- CC(=O)[C@H]1[C@H](C#N)CC2C3CC=C4C[C@@H](O)CCC4(C)C3CCC21C (some centres undefined)
→ 13% | 2.5
- CC(C)C(=O)N[C@@H]1CCCN1C(=O)/C=C\c1ccccc1
→ 6% | -1.2[11.7 µM]
- CC[N+](C)(CC)CC(=O)Nc1c(C)cccc1C
→ 16% | ?
- COc1ccc(CNc2ncnc3ccc(-c4c(C)noc4C)cc23)cc1
→ -19% | 17
- CC(C)Oc1cccc(-n2c(CCc3c[nH]c4ccc(Br)cc34)nc3ccccc3c2=O)c1
→ 7% | -4.7
- Clc1ccccc1-c1nc(Nc2ccncc2)c2ccccc2n1
→ -4% | 5.4
- CN(C)[C@@H]1C(=O)C(C(N)=O)=C(O)[C@]2(O)C(=O)C3=C(O)c4c(O)ccc(Cl)c4[C@H](O)[C@H]3C[C@@H]12
→ 20% | ?
- NCC1O[C@@H](O[C@@H]2C(O)[C@H](O[C@H]3OC(CO)C(O)C(N)C3O)[C@@H](N)C[C@H]2N)C(N)C(O)C1O (some centres undefined)
→ 10% | 0.1

# Following part
# Below each compound – Sfp PPTase inh | Menin-MLL FL inh
- O=C(c1ccco1)N1CCC2(CC1)CN(c1ccc(-c3ccccc3)cc1)C2
→ -1% | -3.5
- CCOC(=O)OCC1OC(C#Cc2ccc(F)cc2F)C=CC1OC(=O)OCC (centres undefined)
→ 4% | -0.3[11.7 µM]
- CS(=O)(=O)N1CCC2(CC1)CN(c1ccncc1)C2
→ -7% | 3.1
- COc1ccc(SCCN2CCN(CCc3ccccc3)CCC2=O)cc1
→ -12% | -3.5
- COc1ccc(C(=O)N2CCC3(CCCN(Cc4nccs4)C3)CC2)cc1
→ 1% | 0.0
- Nc1ncn(C2CC(O)C(CO)O2)c(=O)n1 (centres undefined)
→ -8% | 0.5
- N[C@@H](C(=O)O)c1ccc(O)c(C(=O)O)c1
→ ? | 0.2&-16
- CN(C)c1ncc2ncc(=O)n(CCC#N)c2n1
→ 9% | 5.9
- CCCCc1cc2c(cn1)=C(OC(=O)c1ccco1)C(C)(OC(=O)CC)C(=O)C=2 (centres undefined)
→ -17% | 0.1[11.7 µM]
- COCCn1c(=O)c(-c2cccs2)nc2cnc(Oc3cccc(Cl)c3)nc21
→ 5% | -4.9
- COc1ccc(-n2c(=O)c(C)nc3cnc(Nc4cccc(OC)c4)nc32)cc1
→ -2% | -1.5
- Cc1noc(-c2ccc(CSCCC(=O)O)cc2)c1NC(=O)OC(C)c1ccccc1Cl (centres undefined)
→ 1% | -0.4
- COc1ncc2nc(CCc3ccccc3)c(=O)n(CCc3ccccc3)c2n1
→ ? | 2.7
- COc1ccc(-c2nc3c(c4c2C[C@H](c2ccccc2)OC4)CN(C(=O)c2ccco2)CC3)c(C)c1
→ -8% | -0.5[11.7 µM]
- CC(C)C[C@H](NC(=O)[C@@H](Cc1c[nH]c2ccccc12)NC(=O)[C@H](Cc1ccc(O)cc1)NC(=O)[C@H](CO)NC(=O)[C@H](Cc1c[nH]c2ccccc12)NC(=O)[C@H](Cc1cnc[nH]1)NC(=O)[C@@H]1CCC(=O)N1)C(=O)N[C@@H](CCCN=C(N)N)C(=O)N1CCC[C@H]1C(=O)NCC(N)=O
→ 11% | -7.8
- CO[C@H](C(=O)[C@@H](O)[C@@H](C)O)C1Cc2cc3cc(O[C@H]4C[C@@H](O[C@H]5C[C@@H](O)[C@H](O)[C@@H](C)O5)[C@@H](O)[C@@H](C)O4)c(C)c(O)c3c(O)c2C(=O)[C@H]1O[C@H]1C[C@@H](O[C@H]2C[C@@H](O[C@H]3C[C@](C)(O)[C@H](O)[C@@H](C)O3)[C@H](O)[C@@H](C)O2)[C@H](O)[C@@H](C)O1 (some centres undefined)
→ 6% | ?
- COCCn1c(=O)c(CCc2ccccc2)nc2cnc(Oc3cccc(Cl)c3)nc21
→ 0% | -1.7
- C=CCC(C)(O)c1cccc(Br)c1 (centres undefined)
→ 15% | -1.5
- Cc1nc2cnc(Oc3ccccc3)nc2n(C2CC2)c1=O
→ 8% | 13
- CCC(C)C(NC(=O)OC(C)(C)C)C(=O)NC1COC2CC(n3cc(F)c(=O)[nH]c3=O)OC12 (centres undefined)
→ -3% | -3.1
- c1ccc2c(c1)OCC(CN1CCCCC1)O2 (centres undefined)
→ -4% | -0.9
- C[C@H](O)Cn1cnc2c1c(=O)n(C)c(=O)n2C
→ 9% | 5.7[24.8 µM]
- O=c1c(-c2ccc(F)cc2)nc2cncnc2n1C1CC1
→ 15% | -3.0
- CC[C@@]1(O)C(=O)OCc2c1cc1n(c2=O)Cc2cc3c([N+](=O)[O-])cccc3nc2-1
→ 23% | -3.1
- COCCNc1cc(-c2ccccc2CN(C)C)ncn1
→ 16% | -3.3
- NCCC[C@@H](CC(=O)N[C@@H]1CCNC[C@H]1C(=O)N[C@H](CC(=O)N[C@@H](CCC(=O)O)CC(=O)O)Cc1c[nH]c2ccccc12)NC(=O)C[C@H](Cc1ccccc1)NC(=O)[C@@H]1CCCC[C@H]1N
→ 6% | -2.0
- CN1CCCC2(CCN(C(=O)c3cccn3C)CC2)C1
→ -1% | -3.9
- CCC1=C2CC[C@H]3C(=O)N(c4ccccc4)C(=O)[C@H]3[C@H]2[C@@]2(Cc3ccccc3)C(=O)N(CC(=O)OC)C(=O)N2C1=O
→ 13% | 3.4
- O=C(Oc1cc(OC(=O)c2ccccc2)c2c(c1)OC(c1ccc(OC(=O)c3ccccc3)c(OC(=O)c3ccccc3)c1)[C@@H](OC(=O)c1ccccc1)C2)c1ccccc1 (some centres undefined)
→ -9% | 1.0

# An excerpt. The share of hits here may be higher or lower than overall.
